PrP 5UTR inh = inhibition of PrP 5' UTR reporter expression; AID 488862; inhibition, % (concentration not given with the values); actives 0.35% (n = 340,000); cell-based PrP 5' UTR mRNA reporter, plate reader;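 active means every replicate at 50% or more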;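 further: 0 = median of the neutral control wells; tested in H4 reporter cells; numbers are from one replicate; inactives centre near -14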
RN4220 kill = kills Staphylococcus aureus RN4220; S. aureus RN4220 growth, OD600, 16 h; inhibition, % (test concentration not listed); actives 0.33% (n = 330,000); AID 1259311;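 active means z-score of -3 or lower and OD600 up to 0.18 on both plates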;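 further: plate controls were untreated cells for no effect and reference antibiotic for full effect; stock transfer was 100 nL into about 80 µL; one replicate is shown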
Bead autofluor = counter-screen for toxin protease inhibitors: compound fluorescence | compound autofluorescence counterscreen, microsphere flow cytometry; hits give high values | fluorescence intensity (concentration not given with the values) | actives 3.1% (n = 360,000);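 active means at least 3 SD above the mean of all compounds, about 16000 in these data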;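 further: 100 nL of 1 mM stock went into each well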
ugtP null kill = growth inhibition of S. aureus ugtP deletion strain. AID 1259309. S. aureus RN4220 ugtP deletion, OD600 growth, 16 h; some inactives read as strong as hits. growth inhibition, % (no concentration beside the values). actives 0.54% (n = 330,000);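 active means z-score under -3 and OD600 up to 0.15 on both plates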;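 further: plate controls were untreated wells for no effect and antibiotic for full effect; wells of about 80 µL received 100 nL stock; the first replicate is given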
Mtb hypoxia rep = reduces hypoxia-regulated biosensor signal in M. tuberculosis; M. tuberculosis hypoxia-regulated fluorescent reporter, fluorescence; fluorescence inhibition, % (test concentration not listed); actives 0.1% (n = 300,000); AID 1159583;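 active means 35 to 45% if threefold the growth effect, above 45% if 1.5-fold the growth effect; inactive means the rest, general growth blockers included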;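 further: wells of about 50 µL received 100 nL stock; 0% = vehicle wells and 100% = reference inhibitor wells; whole bacteria with a GFP reporter of the hypoxia response; strong numbers were not always called active; many hits fall short of the cut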
BJeLR lethal = BJeLR cell viability loss. BJeLR (HRASV12) viability, CellTiter-Glo ATP luminescence, 48 h; reference of the scale not given here. inhibition, % (concentration not given with the values). actives 0.17% (n = 300,000). AID 1554;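 active means replicate mean above 50%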;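 further: 50 nL library stock added to about 25 µL; numbers are from one replicate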
Mtb hypoxia rep growth = second read-out of Mtb hypoxia rep, no call of its own (marks repeat the call); growth inhibition, %; measured here: M. tuberculosis growth (absorbance);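 0% = vehicle and 100% = reference antibiotic; read after six days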
* hit, by the source's call; nt = not tested or not shown. The order is random; 4% or so of the library scored in one or more.

Every second line gives: PrP 5UTR inh	RN4220 kill	Bead autofluor	ugtP null kill	Mtb hypoxia rep	Mtb hypoxia rep growth	BJeLR lethal
- COC(=O)C(C)Oc1cc(C)ccc1COc1ccc(-n2nc(C)n(C(F)F)c2=O)cc1 (stereo unspecified)
 : 0.7	9.3	3772	21.0	14.2	10.7	-9.8
- CC(=O)C1CCC2C3C=CC4=CC(=O)CC[C@@]4(C)C3CC[C@]12C (stereo partly specified)
 : nt	5.8	nt	-2.8	-13.2	5.4	nt
- COc1ccc(-c2coc3cc(O)ccc3c2=O)cc1
 : -29.2	5.6	6104	1.3	3.4	6.3	7.9
- COc1ccc(OC)c(C2=NOC(C(=O)Nc3c(C)n(C)n(-c4ccccc4)c3=O)C2)c1 (stereo unspecified)
 : -23.9	8.0	5155	7.9	-0.7	1.3	-13.4
- COc1ccc(-n2c(CNC(=O)c3cc(OC)c(OC)c(OC)c3)n[nH]c2=S)cc1
 : -12.3	-0.2	11002	-1.0	2.4	10.6	-0.4
- O=C(COC(=O)c1ccc(F)c(S(=O)(=O)N2CCOCC2)c1)NC1CCCCC1
 : -18.6	2.1	6337	3.2	1.9	-1.3	nt
- Cc1[nH]c(=O)nc(SCc2cccc(Cl)c2)c1C#N
 : -20.1	17.6	3288	-9.1	5.6	-6.8	6.7
- COc1ccc(CC(=O)N/N=C\c2cc(Br)c(O)c(Br)c2)cc1
 : 5.1	nt	4026	nt	nt	nt	-4.4
- COc1cc2nc(C3CCC3)n(NC(=O)COc3ccccc3)c(=O)c2cc1OC
 : -14.7	1.2	7566	1.6	8.3	-0.2	6.4
- O=C(c1ccco1)N1CCN(C(=O)c2ccc(-c3ccc([N+](=O)[O-])cc3)o2)CC1
 : -7.1	-0.9	8550	-7.4	-13.3	10.2	nt
- Cc1ccc(Nc2cc(=O)n(C3CCCCC3)c(=O)[nH]2)cc1C
 : -26.0	-3.9	3085	8.4	25.4	-14.5	-3.9
- O=C1C2CCCCC2C(=O)N1c1nccs1 (stereo unspecified)
 : -27.5	2.1	3800	4.4	15.9	10.0	-3.4
- CCNC(=S)N/N=C/c1cccs1
 : -2.1	nt	3113	nt	nt	nt	-2.7
- O=c1cnnc(N/N=C/c2c[nH]c3ccccc23)[nH]1
 : -12.6	nt	4633	nt	nt	nt	1.4
- Cc1nonc1NC(=O)OC1CCCCC1
 : -28.8	2.5	8180	2.5	8.1	3.9	-3.5
- CN(CC(=O)Nc1ccc(OC(F)(F)F)cc1)C(=O)/C=C/c1ccco1
 : -0.6	0.8	5512	2.2	6.0	13.2	nt
- O=C(Nc1nnc(C2CCCCC2)s1)c1ccco1
 : 5.7	-6.4	2702	4.7	nt	nt	-3.0
- O=C(CC1OC(=O)c2ccccc21)c1ccco1 (stereo unspecified)
 : -22.7	5.3	10363	10.6	8.8	11.0	1.3
- COC(=O)C1=C(c2cccc(OC)c2OC)C[C@@H]2CC[C@H]1N2C(=O)NCCCOC(C)C
 : -9.6	nt	4316	nt	nt	nt	2.5
- OCCNc1cnc2ccccc2n1
 : -23.3	1.9	3464	-1.9	-12.8	1.1	-4.0

Following part
Every second line gives: PrP 5UTR inh	RN4220 kill	Bead autofluor	ugtP null kill	Mtb hypoxia rep	Mtb hypoxia rep growth	BJeLR lethal
- CCOc1ccc2oc(C(=O)N(CCOC)c3c(N)n(CC(C)C)c(=O)[nH]c3=O)c(C)c2c1
 : -2.3	1.9	3647	3.0	2.5	0.1	nt
- Cc1cccc(NC2=CC(=NS(=O)(=O)c3cccs3)c3ccccc3C2=O)c1
 : nt	7.9	nt	7.3	2.1	0.1	nt
- CCC(=O)Nc1ccc(N2CCN(C(=O)c3ccco3)CC2)c(Cl)c1
 : 2.9	2.0	5864	-10.1	-4.3	11.7	-3.4
- Cc1cc(N2CCN(C(=O)c3ccco3)CC2)n2ncnc2n1
 : -16.3	-2.3	3912	-4.7	-2.1	-2.7	-10.5
- Cc1ccccc1OCC(=O)Nc1ccc(S(=O)(=O)Nc2ccccn2)cc1
 : -6.8	1.1	2517	6.0	8.7	3.6	-10.8
- CS(=O)(=O)N(CC(=O)N1CCN(Cc2ccc3c(c2)OCO3)CC1)Cc1ccc(Cl)cc1
 : nt	9.7	10851	-3.9	6.6	3.2	13.0
- Cc1cc(C)n2nc(SCc3nnc(SCc4ccccc4Cl)s3)nc2n1
 : -2.1	1.3	8132	9.1	17.4	6.1	-3.6
- COc1ccc(-c2c(N)n[nH]c2C)cc1OC
 : -15.3	3.3	2148	7.8	3.5	8.3	6.6
- O=C(/C=C/c1cn(-c2ccccc2)nc1-c1ccc2c(c1)OCCO2)NCCO
 : 6.4	nt	4592	nt	nt	nt	-5.1
- Cc1csc(NC(=O)c2cc3c(s2)CCC3)n1
 : -0.7	-0.3	3395	-4.6	1.1	10.3	13.2
- CC1(C)CC(NC(=S)NCc2ccc3c(c2)OCO3)CC(C)(C)N1
 : nt	-2.1	nt	9.5	16.7	1.1	6.3
- CC(=O)Nc1ccc(/C(C)=N/NC(=O)c2ccccc2Cl)cc1
 : -0.2	nt	2531	nt	nt	nt	-3.6
- CC(=O)c1cc2c(cc1NC(=O)CCn1cnnn1)OCO2
 : -23.0	5.9	2827	6.3	3.9	-2.3	-7.2
- COc1ccc(NC(=O)CNC(=O)Cn2ccc3ccccc3c2=O)c(OC)c1
 : -1.5	5.6	2863	10.9	9.0	2.1	4.8
- O=C1NC(=O)N(c2ccccc2)C1=O
 : -13.0	4.9	3319	11.3	-5.0	-0.8	6.3
- O=C(CCC1CCCC1)NCc1cccs1
 : -10.4	-0.6	3819	7.8	nt	nt	15.3
- O=C(NCCc1c[nH]c2ccccc12)C(=O)NCC1OCCN1S(=O)(=O)c1ccccc1 (stereo unspecified)
 : -11.8	nt	2271	nt	nt	nt	-8.7
- COc1ccc(C2CC3(CC(C)(C)NC(=S)N3)Oc3cc(O)cc(C)c32)cc1OC (stereo unspecified)
 : 21.5	-1.6	4743	-0.9	-11.3	4.1	-7.5
- O=C(Nc1ccn(Cc2ccccc2)n1)c1n[nH]c([N+](=O)[O-])c1Cl
 : -6.4	18.8	2362	13.2	14.5	3.0	-0.2
- CN(C)C(=O)N1CCC(C(=O)NC2CCCCCCC2)CC1
 : -22.3	5.7	7961	1.4	6.0	3.6	4.4

By substructure: the compounds so far with a thiophene ring, fused or not
Every second line gives: PrP 5UTR inh	RN4220 kill	Bead autofluor	ugtP null kill	Mtb hypoxia rep	Mtb hypoxia rep growth	BJeLR lethal
- CCNC(=S)N/N=C/c1cccs1
 : -2.1	nt	3113	nt	nt	nt	-2.7
- Cc1cccc(NC2=CC(=NS(=O)(=O)c3cccs3)c3ccccc3C2=O)c1
 : nt	7.9	nt	7.3	2.1	0.1	nt
- Cc1csc(NC(=O)c2cc3c(s2)CCC3)n1
 : -0.7	-0.3	3395	-4.6	1.1	10.3	13.2
- O=C(CCC1CCCC1)NCc1cccs1
 : -10.4	-0.6	3819	7.8	nt	nt	15.3

Random excerpt: four records from the list, in no set order.
Every second line gives: PrP 5UTR inh	RN4220 kill	Bead autofluor	ugtP null kill	Mtb hypoxia rep	Mtb hypoxia rep growth	BJeLR lethal
- CCOc1ccc2oc(C(=O)N(CCOC)c3c(N)n(CC(C)C)c(=O)[nH]c3=O)c(C)c2c1
 : -2.3	1.9	3647	3.0	2.5	0.1	nt
- COc1ccc(-c2c(N)n[nH]c2C)cc1OC
 : -15.3	3.3	2148	7.8	3.5	8.3	6.6
- O=C(Nc1ccn(Cc2ccccc2)n1)c1n[nH]c([N+](=O)[O-])c1Cl
 : -6.4	18.8	2362	13.2	14.5	3.0	-0.2
- Cc1cccc(NC2=CC(=NS(=O)(=O)c3cccs3)c3ccccc3C2=O)c1
 : nt	7.9	nt	7.3	2.1	0.1	nt

The results go on.
Every second line gives: PrP 5UTR inh	RN4220 kill	Bead autofluor	ugtP null kill	Mtb hypoxia rep	Mtb hypoxia rep growth	BJeLR lethal
- CCCCSc1nc2c(cnn2-c2ccc(C)c(C)c2)c(=O)[nH]1
 : -29.1	3.3	5585	12.7	-0.6	4.3	14.3
- O=C(CCNC(=O)C1CCN(S(=O)(=O)c2ccc(F)cc2)CC1)NCc1ccccc1
 : -15.5	5.1	4961	12.9	6.4	9.0	3.7
- COc1ccc(C2C(C(C)=O)=C(O)C(=O)N2CCCn2ccnc2)cc1OC (stereo unspecified)
 : 5.8	-0.8	2188	6.1	nt	nt	6.8
- O=C(c1ccc2nc(Cc3ccccc3F)oc2c1)N1CC[C@H](O)C1
 : -10.7	4.4	5200	0.4	-1.0	9.9	-0.5
- O=C(O)CSc1nnc(CNc2ccc(Cl)cc2)n1Cc1ccccc1
 : -36.1	-1.3	9350	1.6	12.6	9.9	-0.9
- O=C(c1ccccc1)N1N=C(c2ccccc2)CC1(O)C(F)(F)F (stereo unspecified)
 : -9.4	13.3	2758	-5.7	10.8	2.6	0.7
- CC(=O)c1cccc(NC(=O)c2c(C)nn(-c3ccccc3)c2Cl)c1
 : 1.9	0.9	2837	1.3	11.6	7.3	0.5
- CCOC(=O)c1ccccc1NC(=O)C1CC(=O)N(C(C)(C)C)C1 (stereo unspecified)
 : -26.0	3.7	4109	8.9	20.3	0.4	-7.7
- N#CC1=C(N)Oc2n[nH]c(-c3ccccc3)c2C1c1cccc(OC(=O)N2CCOCC2)c1 (stereo unspecified)
 : -6.0	1.8	16755*	-6.4	-4.6	1.9	nt
- C/C(CC(=O)NC12CC3CC(CC(C3)C1)C2)=N\NC(=O)c1ccc(C)cc1
 : 10.3	nt	3619	nt	nt	nt	1.7
- CCOC(=O)c1ccc(NC(=S)N(CCN(C)C)C(C)c2ccncc2)cc1 (stereo unspecified)
 : 4.9	7.0	3823	-3.8	-11.6	-2.0	4.9
- CCc1nnc(NS(=O)(=O)c2ccc(NC(=O)/C=C/c3ccc(F)cc3)cc2)s1
 : -21.0	15.5	2566	6.3	4.1	13.4	-5.0
- O=C(COC(=O)c1cc(S(=O)(=O)N2CCOCC2)c(Cl)cc1Cl)NCc1ccco1
 : -17.7	4.6	4417	-1.2	9.5	1.1	nt
- NC(=O)COC(=O)c1ccc(-c2ccc(O)cc2)cc1
 : -27.1	2.1	4977	-4.2	-2.5	-1.7	5.0
- O=C(CCSc1ccccc1)NCCSCc1ccco1
 : -16.2	3.0	2493	7.1	13.5	4.5	-10.0
- CCOc1ccccc1N(CC(=O)NCCSc1ccccn1)S(=O)(=O)c1ccccc1
 : -21.2	2.8	5179	8.1	-5.8	13.1	-9.8
- O=C(C[n+]1ccccc1)NN=Cc1cccc(Cl)c1Cl
 : nt	1.4	nt	0.2	12.1	3.1	nt
- O=C(CSc1nc2sc3c(c2c(=O)n1-c1ccccc1)CCCC3)N/N=C/c1ccccc1C(=O)O
 : -15.1	nt	4265	nt	nt	nt	2.0
- O=C(CCCN1C(=O)/C(=C\c2ccccc2)SC1=S)Nc1ccc(O)cc1C(=O)O
 : -9.3	3.3	4506	8.4	-6.7	0.6	2.2
- CN(C)S(=O)(=O)c1ccc(C(=O)OCC(=O)Nc2sc3c(c2C#N)CCCCC3)cc1
 : -20.6	-4.2	2794	-8.5	2.9	3.4	-3.3

The results go on:
Every second line gives: PrP 5UTR inh	RN4220 kill	Bead autofluor	ugtP null kill	Mtb hypoxia rep	Mtb hypoxia rep growth	BJeLR lethal
- O=C(CCCCCn1c(=S)[nH]c2ccc(N3CCOCC3)cc2c1=O)NCc1cccc(Cl)c1
 : -6.9	8.0	3305	7.6	10.4	10.3	-4.0
- COC(=O)C1=C(c2cc3ccccc3o2)C[C@@H]2CC[C@H]1N2C(=O)NCc1ccc(C(F)(F)F)cc1
 : -26.4	nt	3323	nt	nt	nt	-0.7
- CCC(=O)Nc1c(C)ccc2nsnc12
 : -10.2	-5.8	10422	-6.6	-5.6	-1.9	-12.2
- COc1ccc(CCNC(=O)C(=O)Nc2ccc3c(c2)OCO3)cc1OC
 : -13.6	2.1	4539	5.1	-6.5	-4.0	6.2
- COc1ccc(-c2cn(CCCOCc3ccccc3)nn2)cc1
 : 4.5	8.6	3789	4.2	-1.5	-5.7	-3.9
- COCCCNC(=O)CNC(=O)c1cn(-c2ccccc2OC)c(=O)c2ccccc12
 : -12.6	6.1	4478	2.9	11.0	8.5	-3.0
- CCN(CC)C(=O)/C(=C/c1ccc2c(c1)OCO2)NC(=O)c1ccc(Br)cc1
 : -17.6	nt	2407	nt	nt	nt	-1.6
- CC(=NNC(=O)c1nnn(-c2nonc2N)c1-c1ccccc1)c1ccncc1
 : nt	2.6	nt	-2.8	-0.2	0.6	nt
- COc1ccccc1N1CCN(C(=O)c2cccs2)CC1
 : -29.2	7.3	3733	7.0	7.0	2.7	2.9
